Screening data: PubChem BioAssay, Southern Research Institute
Mtb growth – Mycobacterium tuberculosis H37Rv growth inhibition, cell based, confirmatory dose response (AID 1949); most inactive calls were filed without a number and no value below 0 was filed; inhibition, % at 10 µg/mL, or IC50 in µg/mL where a hit was titrated; hit rate 1.6% among 100,000;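 active = confirmed in a dose series; inconclusive = about 50% or more but not retested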;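 also: bacteria grown 7 days with compound before Alamar blue readout; 0% = untreated bacteria and 100% = reference antibiotic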
* hit, by the source's call; i = inactive; ? = inconclusive.

SMILES	Mtb growth
CCc1nnc(N2C(=O)C3C4C=CC(C4)C3C2=O)s1 (centres undefined)	i
CCN(CC)C(=O)c1sc(NC(=O)c2cccc([N+](=O)[O-])c2)c(C#N)c1C	i
NC(=O)CN1CCN(CCN2C(=O)c3cccc4cccc(c34)C2=O)CC1	i
COC(=O)c1cc(OC)c(OC)cc1NC(=S)NC(=O)c1ccccc1	i
COC(=O)c1ccccc1NC(=O)c1cccc(NC(=O)CSc2ccccc2)c1	i
COc1nc(-c2cccs2)cc(-c2cccc([N+](=O)[O-])c2)c1C#N	i
CCOC(=O)c1c(C)nc2ncccn12	i
COc1cc(NC(=O)CC23CC4CC(CC(C4)C2)C3)ccc1NC(=O)c1ccco1	49.9%
O=C(O)CCC(=O)Nc1ccc(NC(=O)c2ccccc2)c(Cl)c1	i
CCC(C)NC(=O)c1ccccc1C(=O)NC(C)CC (centres undefined)	i
CC(=O)c1cccc(NC(=S)NNC(=O)c2c(Cl)c(C)nn2C)c1	i
CC(=O)c1c(N2CCN(c3ccc(F)cc3)CC2)nc(=S)n(Cc2ccccc2)c1C	i
Cc1ccc(CNC(=O)C2CCCC2)cc1	i
O=c1c2ccccc2nc(SCc2ccc([N+](=O)[O-])cc2)n1CC1CCCO1 (centres undefined)	i
COC(=O)c1ccc(C2C(C#N)=C(N)Oc3nc[nH]c(=O)c32)cc1 (centres undefined)	i
CC(C)c1ccc(NC(=S)NCc2ccc(F)cc2)cc1	?
COc1ccccc1CC(=O)Nc1ccccc1C(N)=O	i
Cc1cc(Cl)ccc1N(CC(=O)N1CCN(c2ccccc2)CC1)S(=O)(=O)c1ccccc1	i
COc1ccc(C2CC(=O)Nc3ccc4ccccc4c32)cc1OC (centres undefined)	28.8%
COc1cccc(NC(=O)COc2ccccc2C(=O)NCCOc2c(C)cccc2C)c1	i
CC(Oc1ccccc1)C(=O)Nc1scc(-c2ccc(Cl)cc2Cl)c1C(N)=O (centres undefined)	i
Cc1ccccc1NC(=O)Cn1c(=O)n(CC(=O)Nc2ccccc2C)c2ccccc21	i
CC1CN(S(=O)(=O)c2ccc(I)cc2)CC(C)O1 (centres undefined)	i
S=C(Nc1ccccc1)Nc1cccc(Cl)c1Cl	0.9%
COC(=O)CN(c1ccc2c(c1)OCCO2)S(C)(=O)=O	i

A stretch taken from the entries so far, as a working copy:
SMILES	Mtb growth
CC(Oc1ccccc1)C(=O)Nc1scc(-c2ccc(Cl)cc2Cl)c1C(N)=O (centres undefined)	i
Cc1ccccc1NC(=O)Cn1c(=O)n(CC(=O)Nc2ccccc2C)c2ccccc21	i
CC1CN(S(=O)(=O)c2ccc(I)cc2)CC(C)O1 (centres undefined)	i
S=C(Nc1ccccc1)Nc1cccc(Cl)c1Cl	0.9%
COC(=O)CN(c1ccc2c(c1)OCCO2)S(C)(=O)=O	i

Next section.
SMILES	Mtb growth
CCC1CCc2c(sc(NC(=O)c3nc4nc(C)cc(C(F)F)n4n3)c2C#N)C1 (centres undefined)	i
Clc1cccc(Cl)c1Cn1cnc2c(Oc3ccc4c(c3)OCO4)ncnc21	i
CCN(CC)CC(=O)Nc1c(C)cc(C(C)(C)c2cc(C)c(NC(=O)CN(CC)CC)c(C)c2)cc1C	i
O=C(Nc1cccc(Br)c1)C1CCN(S(=O)(=O)c2ccccc2)CC1	i
S=c1[nH]nc(CSCc2ccccc2Cl)n1-c1ccccc1	i
COc1ccc(NC(=O)c2ccccc2NC(=O)c2ccccc2C)cc1	i
CC(C)c1ccccc1NC(=O)c1ccc(-c2ccc(Br)cc2)o1	i
CCN1CCN(C2CCN(Cc3cccc([N+](=O)[O-])c3)CC2)CC1	i
CN1CCC(NCc2ccccc2C(F)(F)F)CC1	i
CN1CCN(c2ncnc3c2cnn3-c2ccc(Cl)cc2)CC1	3.5%
Cc1ccc(S(=O)(=O)N2CCN(S(=O)(=O)c3ccc4ccccc4c3)CC2)cc1	i
Cc1onc(-c2ccccc2)c1C(=O)Nc1sc2c(c1C(N)=O)CCc1ccccc1-2	i
Cc1cc[n+](CC(=O)Nc2nc3ccccc3s2)cc1	i
O=C1c2ccccc2C(=O)N1CCN=C1NS(=O)(=O)c2ccccc21	i
O=C(C(Cc1ccccc1)N1C(=O)C2C3C=CC(C3)C2C1=O)N1CCCCCC1 (centres undefined)	i
Cc1occc1C(=O)N1CCN(c2ccc(Cl)c(Cl)c2)CC1	i
CCOC(=O)C(=O)Nc1nnc(Cc2ccc(Cl)cc2)s1	i
COCc1nc2ccccc2n1CCOc1ccc(C)cc1	5.9%
NS(=O)(=O)c1ccc(Nc2nc(-c3ccc(O)c(O)c3)cs2)cc1	i
COc1cc(C=O)ccc1OCCCCOc1ccc(Cl)c(C)c1C	i
COc1cccc(N2C(=O)c3cccc4c(N5CCOCC5)ccc(c34)C2=O)c1	5.9%
CCC1CCc2nc3sc(C(=O)NC4CC4)c(N)c3cc2C1 (centres undefined)	i
O=C(CSc1nc2ccc([N+](=O)[O-])cc2s1)N1CCN(c2cccc(Cl)c2)CC1	i
Cc1nnc(SCc2ccccc2C#N)n1-c1ccccc1	i
CCc1cc(=O)oc2cc(OCc3cc(C(=O)OC)oc3C)ccc12	0.4%
More structures
SMILES	Mtb growth
CCCN(CCC)S(=O)(=O)c1ccc(NC(=O)C2CCCCC2)cc1	i
COc1ccc(S(=O)(=O)N2CC(C)N(S(=O)(=O)c3ccc(OC)cc3)CC2C)cc1 (centres undefined)	i
CC(C)Cc1ccc(C(C)C(=O)N2CCOCC2)cc1 (centres undefined)	i
COC(=O)Cc1[nH]nc2c1C1(CCSCC1)C(C#N)=C(N)O2	i
O=C(CSc1nc2ccccc2c(=O)n1-c1ccccc1)NC1CCCCC1	i
COC(=O)c1cccc(NC(=O)c2ccc(C#N)cc2F)c1C	i
O=c1[nH]c(=S)[nH]c2scc(-c3cccs3)c12	i
S=C(NCC1CCCO1)Nc1cc(-c2ccccc2)[nH]n1 (centres undefined)	i
COc1ccc(S(=O)(=O)Nc2ccccc2C(=O)NCc2ccco2)c(Cl)c1Cl	i
Cc1cc(C(=O)O)ccc1-c1ccc(CO)o1	i
CCc1ccc(NC(=O)CN(c2cc(C(F)(F)F)ccc2Cl)S(C)(=O)=O)cc1	i
Cc1c(Cl)c(=O)oc2cc(OCc3ccc(F)cc3)c(Cl)cc12	i
CCOC(=O)c1cc(-c2ccccc2)sc1NC(=O)CSc1nncn1C	i
Cc1cc(Br)cc(C)c1NC(=S)NC(=O)c1cccs1	i
O=C(c1ccncc1)N1CCN(C(=O)c2ccncc2)CC1	i
CCOc1ccccc1NC(=O)CN(c1cc(C)cc(C)c1)S(=O)(=O)c1ccccc1	6.3%
Cc1ccc(Cl)cc1NC(=O)c1cc(C(F)(F)F)cc(C(F)(F)F)c1	i
CC(C)OC(=O)c1ccc(NC(=O)c2ccco2)cc1	1.9%
CC(=O)Oc1ccc2c(=O)c(-c3c(F)cccc3Cl)c(C)oc2c1	9.9%
CCOc1ccc(N2C(=O)CC(N3CCN(C4CCc5ccccc5C4)CC3)C2=O)cc1 (centres undefined)	i
CC(=O)c1cccc(N(CC(=O)N2CCc3ccccc3C2)S(C)(=O)=O)c1	0.8%
S=C(NCCN1CCOCC1)NC1CCCC1	i
N#Cc1nc(-c2cccs2)oc1NCc1ccco1	0.1%
CCOC(=O)C1CCN(C(=S)Nc2ccc3nccnc3c2)CC1	i
CCOC(=O)c1ccc(NC(=O)Cn2cnc3ccccc3c2=O)cc1	i
Following part.
SMILES	Mtb growth
O=C(CCNc1ccc2c(c1)oc1ccccc12)c1ccc([N+](=O)[O-])cc1	14.6%
O=C(Nc1ccc(I)cc1F)c1cc(Cl)ccc1Cl	i
COC(=O)c1ccc(C2c3c(oc4cc(C)c(C)cc4c3=O)C(=O)N2Cc2ccc(OC)cc2)cc1 (centres undefined)	i
COc1ccc(Oc2coc3cc(OC(=O)N4CCOCC4)ccc3c2=O)cc1	i
COc1ccccc1CC(=O)Nc1ccccc1C(=O)NC(C)(C)C	i
O=C1CCCc2c1cc(C(=O)NCc1ccccc1)c(=O)n2-c1ccccc1	i
CCOc1ccc(-n2nc3cc(C)c(NC(=S)NC(=O)c4cccnc4)cc3n2)cc1	i
CSc1ccc(S(=O)(=O)Nc2ccc(I)cc2C)cc1	i
CCCCc1ccc(NC(=O)CN(c2ccc(OC)c(OC)c2)S(=O)(=O)c2ccccc2)cc1	i
Cc1cc(C)c(NC(=O)COc2ccc(Cl)c(C)c2)c(C)c1	10.4%
CCOC(=O)c1c(-c2ccc(F)cc2)csc1NC(=O)C1CCCCC1C(=O)O (centres undefined)	i
COCCCNC(=O)C(=O)NC1CCCCC1C (centres undefined)	i
CCOc1ccc(S(=O)(=O)Nc2ccc(Cl)cc2)c2ccccc12	7.9%
Cc1cc(Cl)ccc1-n1c(-c2ccccc2)n[nH]c1=S	0.7%
CC1CN(S(=O)(=O)c2cccc(Cl)c2)CC(C)O1 (centres undefined)	i
Cc1nc(SCC(=O)Nc2ccnc3ccccc23)n[nH]1	i
Cc1ccc(-n2c(SCC(=O)N(C)c3ccccc3)nc3nc4c(cc3c2=O)COC(C)(C)C4)cc1	i
Cc1nn2c(-c3cccc(NC(=O)CN4CCCCC4)c3)nnc2c2ccccc12	i
Cc1ccc(Nc2nc(C)cc(C)n2)c(C(=O)O)c1	6.8%
Cc1ccc(NC(=S)Nc2ccc([N+](=O)[O-])cc2)c(Br)c1	i
CC1CCc2nc(NC(=O)CSc3ncccn3)sc2C1 (centres undefined)	i
COc1ccc(N(CC(=O)NCc2ccco2)S(=O)(=O)c2ccc(F)cc2)cc1	i
CCCCC(=O)Nc1ccc(C(=O)Nc2cc(S(=O)(=O)N(CC)CC)ccc2OC)cc1	i
CC(Sc1ccccc1)C(=O)Nc1cccc(C(F)(F)F)c1 (centres undefined)	i
Cc1cc(C)n(-c2cc(N3CCN(S(=O)(=O)c4ccc(F)cc4)CC3)ccc2[N+](=O)[O-])n1	i
The list goes on:
SMILES	Mtb growth
COc1ccc(-c2csc(Nc3ccc(S(N)(=O)=O)cc3)n2)cc1	3.73µg/mL*
CCOC(=O)COc1ccc(S(=O)(=O)Nc2cc(C)cc(C)c2)cc1	4.03µg/mL*
COc1cc(C(=O)Nc2ccc(CC34CC5CC(CC(C5)C3)C4)cc2)cc(OC)c1OC	i
O=C(Nc1scc(-c2cccs2)c1C(=O)O)c1ccc(Br)cc1	9.1%
O=C1CCCc2c1cc(C(=O)NCc1ccccc1)c(=O)n2-c1ccc(Cl)cc1	4.7%
O=c1c2ccccc2ncn1CCOc1ccc(Br)cc1Cl	i
COC(=O)c1cccc(NC(=S)NCCC2=CCCCC2)c1	?
COc1ccc(CNC(=O)c2ccc(Cl)cc2Cl)cc1	1.9%
CCOC(=O)NC(C(=O)OCC)(c1ccccc1)C(F)(F)F (centres undefined)	i
O=C(CSc1nc(-c2ccccc2)cc(=O)[nH]1)NC1CCCC1	i
CCCCOc1ccc(NC(=O)COc2ccccc2C(=O)Nc2cccc(Cl)c2C)cc1	0.7%
CCn1c(SCC(=O)c2ccc(NS(=O)(=O)c3ccccc3)cc2)nnc1-c1cccs1	i
Cc1c(Cl)cccc1NC(=O)c1ccccc1N(C)S(=O)(=O)c1ccccc1	i
O=C(Nc1cccnc1)c1ccc(COc2ccccc2Cl)o1	i
Cc1ccc(OCC(=O)Nc2cc(-c3nn(C)c(=O)c4ccccc34)ccc2N2CCCCC2)cc1	17.8%
CCOc1ccc2nc(SCc3ccc(C(=O)OC)cc3)[nH]c2c1	8.9%
COc1ccc(S(=O)(=O)Oc2cc(Cl)ccc2Cl)cc1OC	7.1%
COc1ccccc1C1c2c(-c3ccccc3)n[nH]c2C(=O)N1c1ccccc1 (centres undefined)	23.1%
Cc1ccc(NS(=O)(=O)c2ccc(NC(=O)Cc3ccc(Br)cc3)cc2)cc1	28.2%
COc1ccc(OC(C)C(=O)Nc2cccc(C#N)c2)cc1 (centres undefined)	1.4%
COc1ccc(S(=O)(=O)NC(C)C)cc1Br	i
CNC(=S)Nc1ccccc1SC	i
CC(=O)c1ccc(NC(=S)NC(NC(=O)c2cccc(Cl)c2)C(Cl)(Cl)Cl)cc1 (centres undefined)	?
COc1cc(Br)ccc1OCC(=O)N=Nc1c(O)[nH]c2ccc(Br)cc12	i
COc1ccccc1N1CCN(C(=O)c2cnn3c(C(F)F)cc(-c4ccc(C)cc4)nc23)CC1	i

Individual results from the results shown.
`CCCCOc1ccc(NC(=O)COc2ccccc2C(=O)Nc2cccc(Cl)c2C)cc1` in Mtb growth shows 0.7%
`COc1ccccc1C1c2c(-c3ccccc3)n[nH]c2C(=O)N1c1ccccc1` (centres undefined) in Mtb growth shows 23.1%

Some of the entries so far, with each value named:
> CNC(=S)Nc1ccccc1SC
- Mtb growth = i

> CC(=O)c1ccc(NC(=S)NC(NC(=O)c2cccc(Cl)c2)C(Cl)(Cl)Cl)cc1 (centres undefined)
- Mtb growth = ?

> COc1cc(Br)ccc1OCC(=O)N=Nc1c(O)[nH]c2ccc(Br)cc12
- Mtb growth = i

> COc1ccccc1N1CCN(C(=O)c2cnn3c(C(F)F)cc(-c4ccc(C)cc4)nc23)CC1
- Mtb growth = i

Retrieved by structure from the entries so far, 3 records:
SMILES	Mtb growth
O=C(CSc1nc2ccccc2c(=O)n1-c1ccccc1)NC1CCCCC1	i
CC(C)Cc1ccc(C(C)C(=O)N2CCOCC2)cc1 (centres undefined)	i
CC(Oc1ccccc1)C(=O)Nc1scc(-c2ccc(Cl)cc2Cl)c1C(N)=O (centres undefined)	i

Additional structures follow.
SMILES	Mtb growth
Cc1ccccc1C(=O)N1CCN(c2ccc(NC(=S)NC(=O)CC34CC5CC(CC(C5)C3)C4)cc2)CC1	3.8%
COc1ccc(NC(=O)CSC2CC(=O)N(c3cc(Cl)cc(Cl)c3)C2=O)cc1 (centres undefined)	i
COc1ccc(NCc2c(F)cccc2Cl)cc1Cl	13.1%
CCCCC(CC)CNC(CC(=O)Nc1cc(Cl)ccc1OC)C(=O)O (centres undefined)	i
Cc1cc(C)cc(NC(=S)N2CCN(c3cc(Cl)ccc3C)CC2)c1	0.8%
O=C(Nc1ccccc1C(F)(F)F)N1CCc2ccccc2C1	0.9%
CC(C)=CCC/C(C)=C/CN(CC(C)O)CC(C)O (centres undefined)	1.8%
O=C(COc1cccc(Cl)c1)Nc1ccc(C(=O)OC2CCCCC2)cc1	i

These rows are one share of the data (hit frequency here may not be typical).
